Screens as filed in PubChem BioAssay.
KCNQ2 enhance = potentiators of rat KCNQ2 potassium channel. AID 2239, 2010. Potassium voltage-gated channel subfamily KQT member 2 (Rattus norvegicus), O88943. B-score at 10 µM. CHO-K1 KCNQ2, FluxOR thallium flux fluorescence; active compounds read high. hit rate 0.54% among 310,000;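 active = fluorescence ratio B-score at least 3 SD of library B-scores, with initial fluorescence B-score within 3 SD, cut at about 5.3 in these data; same plate scores as AID 2156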;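 note: B-score of peak minus minimum over baseline fluorescence ratio after K+ and Tl+ stimulus; positive B-score means potentiation of KCNQ2 with more thallium influx and brighter signal; only the inactives scoring about 0 or higher are listed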
Target sequence (O88943 whole entry, looked up): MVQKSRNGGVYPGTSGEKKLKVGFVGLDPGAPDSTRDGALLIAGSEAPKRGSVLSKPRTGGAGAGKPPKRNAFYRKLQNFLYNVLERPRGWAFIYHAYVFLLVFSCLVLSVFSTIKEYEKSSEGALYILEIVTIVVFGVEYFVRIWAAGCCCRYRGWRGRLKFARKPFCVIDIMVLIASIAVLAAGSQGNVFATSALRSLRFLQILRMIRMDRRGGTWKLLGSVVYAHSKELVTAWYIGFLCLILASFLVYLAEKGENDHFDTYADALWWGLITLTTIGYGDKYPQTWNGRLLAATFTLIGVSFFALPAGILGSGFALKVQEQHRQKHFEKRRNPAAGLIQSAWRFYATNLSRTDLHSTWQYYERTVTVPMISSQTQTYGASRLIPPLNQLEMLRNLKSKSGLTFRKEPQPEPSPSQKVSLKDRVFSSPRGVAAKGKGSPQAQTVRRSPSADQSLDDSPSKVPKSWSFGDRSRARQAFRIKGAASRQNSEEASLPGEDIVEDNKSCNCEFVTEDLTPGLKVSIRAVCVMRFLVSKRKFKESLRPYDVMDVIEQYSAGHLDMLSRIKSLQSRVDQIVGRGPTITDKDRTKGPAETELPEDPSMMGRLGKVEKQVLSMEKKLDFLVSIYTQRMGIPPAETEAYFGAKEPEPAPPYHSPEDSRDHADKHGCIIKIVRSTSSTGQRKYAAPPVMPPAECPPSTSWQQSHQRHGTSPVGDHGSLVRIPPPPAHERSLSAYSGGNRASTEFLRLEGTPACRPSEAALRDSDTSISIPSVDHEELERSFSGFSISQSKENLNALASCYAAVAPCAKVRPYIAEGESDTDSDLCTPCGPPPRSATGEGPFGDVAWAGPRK
KCNQ2 enhance baseline = recorded beside KCNQ2 enhance, whose call it bears; B-score; compound at 10 µM; measured here: initial fluorescence intensity artifact check;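 brightness before thallium and not channel activity; 0 = typical well and far values either way flag optical interference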
* marks the source's active call; other numbers are inactive results; . = no result given.

SMILES	KCNQ2 enhance	KCNQ2 enhance baseline
O=Cc1c(Sc2ccccn2)nc2ccccn2c1=O	0.12	1.42
COc1ccc(S(=O)(=O)N2CCOCC2)cc1NC(=O)Cc1coc2cc(C)c(C)cc12	0.89	1.72
O=C(Cc1cccc2ccccc12)Nc1ccc(OC(F)F)c(Cl)c1	1.16	-0.54
COc1ccc(C(=O)O/N=C(\N)c2ccccc2)c(OC)c1	0.66	-0.43
O=C1NN(c2cccc(Br)c2)C(=O)/C1=C/c1cccs1	0.04	0.96
CCCCCCCn1c(=N)n(CC(O)c2ccco2)c2ccccc21 (stereo not given)	3.18	1.5
COc1cc(SC)ccc1C(=O)NCCNC(=O)c1nonc1N	2.92	0.6
Cc1ccc(C)c(N=Nc2ccc(O)c3ncccc23)c1	2.4	-0.02
O=c1oc2c(CN3CCOCC3)c(O)ccc2c2c1CCCC2	0.31	-0.08
COc1cc(CC(=O)NCC2COc3ccccc3O2)cc(OC)c1OC (stereo not given)	1.05	0.73
O=C1NN(c2ccccc2)C(=O)/C1=C\c1ccc(-c2cc([N+](=O)[O-])ccc2O)o1	0.06	-4.18
C=CCn1c(SCC(=O)Nc2ccc(F)cc2)nc2cc(C(=O)O)ccc2c1=O	0.28	-0.62
Cc1ccccc1NC1=NS(=O)(=O)c2ccccc21	0.15	0.44
COCCCNC(=O)CC(=O)N/N=C\c1ccc(SC)cc1	0.83	0.17
CCCCCn1c(SCC#N)nc2cc(C(=O)NCC3CCCO3)ccc2c1=O (stereo not given)	0.28	-0.52
COCCNC(=O)Cn1cc(/C=C(\C#N)C(=O)NC2CCCC2)c2ccccc21	0.82	-0.41
CC1CN(C)C(c2ccccc2)C(C)C12NC(=O)NC2=O (stereo not given)	1.96	0.94
CCN(CC)C(=O)CSc1nnc(-c2ccncc2)n1N	1.6	-0.27
Cc1c(Cl)cccc1NC(=S)NCc1ccco1	1.29	0.02
COc1cc(CNC2CCC(C)C2)cc(OC)c1 (stereo not given)	1.46	1.37
CCOC(=O)c1ccc(NC2=CC(=O)CC(c3ccco3)C2)cc1 (stereo not given)	1.18	0.39
CC1CC(=O)N(c2ccc(NCCc3ccccc3)c([N+](=O)[O-])c2)C1=O (stereo not given)	0.61	0.02
CC1(C)Cc2c(c(N3CCOCC3)nc3snc(Br)c23)CO1	0.65	0.01
O=C(CCS(=O)(=O)c1ccccc1)NC12CC3CC(CC(C3)C1)C2	0.99	-0.03
Cc1cc2c(c(SCC(N)=O)n1)C(=O)OC2	0.8	2.33
Cc1nnc(SCC(=O)NC2CCCC2)s1	1.63	0.14
O=C(NC(O)C(=O)c1ccc(F)cc1)c1ccc(F)cc1 (stereo not given)	0.3	0.27
O=C(O)C1C2CCC(C2)C1C(=O)Nc1nc2ccccc2s1 (stereo not given)	0.77	0.5
N#CC1=C(N)Oc2c(ccc3cccnc23)C1c1ccncc1 (stereo not given)	0.61	-0.21
O=C(CN1C(=O)c2ccccc2C1=O)Nc1cccc([N+](=O)[O-])c1	2.08	-1.38
Cc1ccc(N(C(=O)c2csnn2)C(C(=O)NC2CCCCC2)c2ccncc2)cc1 (stereo not given)	0.3	-1.24
O=C(NCc1ccc2c(c1)OCO2)c1cc2ccccc2o1	2.99	1.49
CCCC[n+]1ccn(-c2nc3ccccc3nc2[N-]S(=O)(=O)c2ccc(Cl)cc2)c1	1.4	-0.96
O=C(NCCc1ccc(F)cc1)Nc1ccccc1	0.1	-1.09
Oc1[nH]c2ccc(Br)cc2c1N=Nc1ccc(C(F)(F)F)cn1	1.15	-1.12
O=C(NNC(=O)c1nn(-c2ccc(F)cc2)ccc1=O)c1ccc(C(F)(F)F)cc1	0.03	0.68
Cc1ccc(C(=O)N2CCC3(CC2)NCCc2[nH]cnc23)cc1C	0.74	-0.84
O=C(NCc1ccccc1)c1ccc[n+]([O-])c1	0.19	0.16
Cc1ccc(NS(=O)(=O)c2c(C(=O)N3CCCC3)c(C)n(C)c2C)cc1	1.25	0.14
O=C(C(=O)N1CCOCC1)c1cn(CC(=O)N2CCc3ccccc3C2)c2ccccc12	0.13	-0.45
COc1ccc(N(CC(=O)NCCC2=CCCCC2)S(=O)(=O)c2ccccc2)cc1	0.08	2.17
O=c1c(C(c2c(O)nc3n(c2=O)CCS3)c2cccc3ccccc23)c(O)nc2n1CCS2	1.11	0.24
COc1cccc(C2=NOC(C(=O)NCCN3CCOCC3)C2)c1 (stereo not given)	0.46	2.8
CC(C)(C)Nc1nc(NCc2cccnc2)nc(N2CCOCC2)n1	2.46	2.94
O=C(OCC(=O)c1ccco1)c1ccc2ncsc2c1	0.68	0.08
COc1ccc(NCc2nc3ccccc3n2C)cc1	0.16	0.12
COc1cc(C(=O)NCCNc2nc3ccc(C)cc3cc2C#N)cc(OC)c1OC	1.81	-1.37
O=C(O)C[C@]1(C(=O)Nc2ccc(F)cc2)CC(/C=C/c2ccccc2)=NO1	0.04	-1.67
O=C(C1=C[C@H](c2coc3ccccc3c2=O)C[C@H](OCCCCO)O1)N1CCN(Cc2ccc3c(c2)OCO3)CC1	0.44	0.57
CS(=O)(=O)c1cccc(-c2nnc(NC(=O)c3ccc4ncsc4c3)o2)c1	0.02	-0.55
Cc1[nH]c2ccc(Cl)cc2c(=O)c1CN1CCCC1	0.28	0.59
Cc1nn(Cc2ccccc2)c(Cl)c1C(=O)OCC#N	1.2	-0.53
CCN(CC)S(=O)(=O)c1ccc(NC(=O)CNC2CCCCC2)cc1	0.08	2.18
CCOC(=O)C1CCN(C(=O)c2ccc(N(C)S(C)(=O)=O)cc2)CC1	1.33	0.06
CC(C(=O)O)n1nc2ccccc2n1 (stereo not given)	0.14	1.29
COc1ccc(NC(=O)Cc2ccc(Cl)cc2Cl)cn1	0.04	1.34
CN1CCN(C(=O)c2cc3sccc3n2CC(=O)c2ccccc2)CC1	0.36	0.03
O=C(CN1CCN(c2ccccc2F)CC1)NC(=O)NCc1ccco1	0.02	1.71
Cc1ccc(-c2csc(NC(=O)C3CSC4(C)CCC(=O)N34)n2)cc1 (stereo not given)	0.31	0.04
CCOC(=O)CSc1nnc(-c2ccccc2)o1	1.69	-1.83

(cont.)
SMILES	KCNQ2 enhance	KCNQ2 enhance baseline
COc1ccc(OC)c(/C=C2\S/C(=N/NC(=O)c3ccc4ccccc4c3)NC2=O)c1	3.95	0.94
Fc1ccc(C(c2nnnn2Cc2cccs2)N2CCN(C3CCCC3)CC2)cc1 (stereo not given)	0.05	-0.31
O=C(O)c1cc(-c2ccccc2)nc2ccccc12	0.1	-0.29
O=C(NCCCN1CCCCC1)c1ccc2c(c1)NC(=O)c1ccccc1S2	3.01	2.32
CC(=O)Nc1ccc(SCC(=O)Nc2cc(C(C)(C)C)nn2-c2ccccc2)cc1	1.62	-0.91
Cc1ccc(C(=O)N2CCCC(N3CCN(c4ccccc4C)CC3)C2)c(=O)[nH]1 (stereo not given)	2.14	2.28
CCN(CC)CCN(C(=O)CCS(=O)(=O)c1ccccc1)c1nc2cc3c(cc2s1)OCO3	0.31	-0.19
O=C(CNS(=O)(=O)c1ccccc1)OCC(=O)c1ccc(F)cc1	0.05	-1.31
CC(=O)N(Cc1cc(=O)[nH]c2ccccc12)c1cccc(C)c1	0.06	-0.13
Cc1cc(C(=O)NNC(=O)c2ccc(Cl)cc2)no1	3.81	-0.74
COc1ccc(CCNC(=O)CCCCCN2C(=O)c3ccccc3C2=O)cc1OC	0.87	3.23
CCOc1ccc(Cn2c(=O)sc3ccccc32)cc1	1.3	0.63
Cc1ccc(NC(=O)CS(=O)CC(=O)NC23CC4CC(CC(C4)C2)C3)cc1 (stereo not given)	0.02	-1.02
CN(C(=O)COC(=O)c1cc[n+]([O-])cc1)c1ccccc1	0.23	-1.01
O=C(NCCc1ccccc1)C(=S)N1CCCCC1	0.52	-0.84
COc1cc(NC(=O)C2CCCN(c3ncccn3)C2)cc(OC)c1 (stereo not given)	0.47	1.22
CCn1ncc(Br)c1C(=O)Nc1cccc(C(C)=O)c1	0.67	-0.59
COC(=O)c1cccc(NC(=O)c2cnn(C)c2)c1	0.08	-1.08
CC(=O)Nc1cccc(NC(=O)CCCC2CCCCC2)c1	1.89	0.37
Cc1cccc(OCC(=O)NCCCNC(=O)c2ccncc2)c1	1.68	-1.56
Cc1ccc(NCc2n[nH]c(=S)n2-c2ccccc2)cc1Cl	0.39	-2.39
CCn1nnnc1NC(=O)c1cccc(OC)c1	0.47	-1.52
CCS(=O)(=O)N1CCCC(C(=O)NC2CCCCC2C)C1 (stereo not given)	0.15	0.33
COc1ccc(-c2c(C)c3cc(O)ccc3oc2=O)cc1OC	0.06	-2
N#CCC(=O)N/N=C/c1cn(Cc2ccccc2C#N)c2ccccc12	0.43	0.92
Clc1ccc(Nc2nc(-c3cccnc3)cs2)cc1	1.35	-1.22
COc1ccccc1CNC(=O)C1CCN(S(=O)(=O)N2CC(C)CC(C)C2)CC1 (stereo not given)	1.36	-0.61
Oc1ccc(N=Nc2nccs2)c(O)c1	0.99	-1.3
O=C(Nc1cccc(S(=O)(=O)N2CCCCC2)c1)c1ccc(OCC2CCCO2)cc1 (stereo not given)	0.31	-0.57
Cc1ccccc1-c1noc(CCC(=O)NCCc2ccccc2)n1	1.07	1.25
O=C(Cn1c(=O)oc2cc(S(=O)(=O)N3CCCC3)ccc21)N1CCc2ccccc2C1	0.03	0.35
COc1cc(CN2CCC(C(=O)NC3CCCC3)CC2)ccc1O	1.61	1.56
C#CCOC(=O)Nc1ccc(=O)n(Cc2c(Cl)cccc2Cl)c1	0.02	2.15
COc1ccc(CCNC(=O)c2cc(-c3ccccc3O)n[nH]2)cc1OC	0.98	2.53
Cc1nn(C(=O)c2nn(C)cc2[N+](=O)[O-])c(C)c1Br	0.67	-1.65
CCN1CCN(CCCNC(=O)CNC(=O)c2nn(-c3ccc(OC)cc3OC)c(=O)c3ccccc23)CC1	0.61	0.12
CCOC(=O)Cc1[nH]nc2c1C(c1cccc(OC)c1OC)C(C#N)=C(N)O2 (stereo not given)	0.7	1.15
Cc1cc(C)n(Cc2ccc(NC(=O)c3ccc(COc4ccccc4Br)cc3)cc2)n1	0.01	-0.5
FC(F)Oc1ccccc1/C=N/Nc1nc2ccccc2o1	0.13	-0.62
COc1cc(/C=C/C(=O)OCC(=O)c2c(N)n(C)c(=O)n(C)c2=O)ccc1OCC#N	0.86	0.76
Cc1cccnc1NC(=O)CCc1c[nH]c2ccccc12	1.53	-1.32
OC1CNCc2cc3c(cc21)OCCO3 (stereo not given)	0.03	0.01
O=C(CSc1nnc(-c2ccncc2)n1CC1CCCO1)Nc1cccc(O)c1 (stereo not given)	0.49	-0.21
Cc1ccc(C(=O)Nc2ccc(F)cc2)o1	0.05	0.79
COC(=O)c1cc(=O)n2c(-c3ccccc3)csc2n1	0.29	0.23
Cc1ccc(NC(=O)CC2=NC(=O)C(CC(=O)Nc3ccccc3C)S2)cc1 (stereo not given)	0.8	-0.48
COc1ccccc1C1/C(=C(\O)c2ccc3c(c2)OCCO3)C(=O)C(=O)N1Cc1cccnc1 (stereo not given)	0.82	1.4
O=C(Cc1ccc(F)cc1)N/N=C/c1ccccn1	0.28	1.35
COc1ccc(OC(=O)COc2cc(C)ccc2C)cc1	0.62	-0.13
COC(=O)c1ccc(C(=O)Nc2ccc(N)cc2N)cc1	0.98	-0.09
Cc1cc(C)c(OCC(=O)Nc2ccccc2N2CCCCC2)c(C)c1	-5.56	.
Cc1ccc(CNC(=O)CCNS(=O)(=O)c2ccc(Br)s2)cc1	3.57	-0.12
O=C(C1CCCN(S(=O)(=O)c2cc(Cl)ccc2Cl)C1)N1CCOCC1 (stereo not given)	1.51	0.14
COc1cc2c(cc1OC)C(c1cccs1)N(C(=S)NC(C)C)CC2 (stereo not given)	0.41	-1.33
O=C1CN(C(=O)NCC(=O)N[C@H](Cc2ccccc2)C(=O)O)c2ccccc2N1	1.25	-1.15
COC(=O)c1ccccc1NS(=O)(=O)c1ccc2[nH]c(=O)[nH]c2c1	0.31	0.24
Cc1ncc(CO)c2cc(S(=O)(=O)c3ccc(F)cc3)c(=O)oc12	1.19	-0.34
CC(C)Cc1cc(C(=O)Nc2ccc3c(c2)OCO3)no1	1.12	0.7
COc1cc(C(C)=O)ccc1Oc1ncccn1	0.65	-0.12
O=[N+]([O-])c1cnccc1Nc1cccc(F)c1	0.04	1.34

Sorted by SMILES length (low to high): six of the compounds above.
SMILES	KCNQ2 enhance	KCNQ2 enhance baseline
COc1cc(C(C)=O)ccc1Oc1ncccn1	0.65	-0.12
COc1ccc(OC(=O)COc2cc(C)ccc2C)cc1	0.62	-0.13
Cc1cccnc1NC(=O)CCc1c[nH]c2ccccc12	1.53	-1.32
COc1cc2c(cc1OC)C(c1cccs1)N(C(=S)NC(C)C)CC2 (stereo not given)	0.41	-1.33
O=C(C1CCCN(S(=O)(=O)c2cc(Cl)ccc2Cl)C1)N1CCOCC1 (stereo not given)	1.51	0.14
COc1ccccc1C1/C(=C(\O)c2ccc3c(c2)OCCO3)C(=O)C(=O)N1Cc1cccnc1 (stereo not given)	0.82	1.4

Next records follow:
SMILES	KCNQ2 enhance	KCNQ2 enhance baseline
Cc1ccc(C)c(OCCCNC2CCCC2)c1C	1.96	0.72
Cc1ccc(CN2CCNC(=O)C2CC(=O)N(C)C(C2CC2)C2CC2)o1 (stereo not given)	1.6	-0.45
COC(=O)C1(CO)NC(c2cccs2)C2C(=O)N(c3ccccc3)C(=O)C21 (stereo not given)	0.13	0.37
CCOC(=O)C1CCN(C(=S)Nc2ccc(S(N)(=O)=O)cc2)CC1	0.01	-1.39
CCOc1ccc(/C=C(\C#N)C(=O)Nc2cccnc2)cc1	0.26	-0.18
CC1(CCc2ccc(O)cc2)NC(=O)NC1=O (stereo not given)	1.23	0.84

A portion of the library; the hit share may differ from the screen's.
